# StopGo RLuc: Primary qHTS Assay for Foot and Mouth Disease Virus Antivirals against NCGC Sytravon and CBC Compound Libraries: Renilla Luciferase Signal; HEK cells with a luciferase reporter of 2A StopGo recoding; Potency, µM (highest dose often 57.5 µM), for the others: top-dose signal change, negative = less light; actives 0.32% (n = 120,000); AID 1745857, 2022; active means well fitted falling curve with a large enough effect; inconclusive means small, poorly fitted or top-dose-only effect; inactive means no such curve, though single readings can be large or run the other way; note: nearly all actives have a fitted effect of over 55% in size; overnight with compound
# StopGo FLuc: Primary qHTS Assay for Foot and Mouth Disease Virus Antivirals against NCGC Sytravon and CBC Compound Libraries: Firefly Luciferase Signal; HEK cells with a luciferase reporter of 2A StopGo recoding; Potency, µM (doses to about 57.5 µM), for inactives: top-dose signal change, negative = less light; actives 0.23% (n = 120,000); AID 1745856, 2022; active = well fitted falling curve with a large enough effect; inconclusive = small, poorly fitted or top-dose-only effect; inactive = no such curve, though single readings can be large or run the other way; note: nearly all actives have a fitted effect of over 60% in size; overnight with compound
# Numbers without * were called inactive; ? = inconclusive; [ ] = remark or other dose. % is set by controls: 0 for no effect and ±100 for the full control effect; potency is the fitted concentration of half-maximal effect. Not all compounds are listed; rates above refer to the full screens.
SMILES,StopGo RLuc,StopGo FLuc
CC(=O)C(C)Sc1cc(-c2ccccc2)ncn1 (stereo not given),12%,221%[activator]
O=C(Nc1ccc(F)c(Cl)c1)C1CCN(S(=O)(=O)c2ccc3c(c2)CCCN3C(=O)C2CCC2)CC1,-2%,-11%
COc1ccc(-c2nn(C)c3sc(C(=O)N4CCN(c5cccc(C)c5C)CC4)cc23)cc1OC,-10%,-18%
Cc1ccc(C2c3c(oc4ccccc4c3=O)C(=O)N2c2ccc(C)cn2)cc1 (stereo not given),-6%,98%[activator]
COc1cccc(CNC(=O)Cc2c(C(=O)O)c(C)cn2C)c1,-9%,-3%
Cc1nc(Nc2ccc(NC(=O)c3ccc(Br)o3)cc2)cc(N2CCOCC2)n1,72%[activator],-6%
COc1cccc(CC(=O)Nc2ccc3nc(Nc4cccc(C(F)(F)F)c4)cc(C)c3c2)c1,11%,-5%
COc1cccc(CNC(=O)c2ccc3c(c2)nc2n3CCOC2)c1OC,-10%,-18%
CC(C)c1ccc2oc(-c3cccc(NC(=O)c4ccc5c(c4)OCCO5)c3)nc2c1,-12%,1%
CCNC(=O)COc1ccc(NC(=O)c2nn(CC)c(=O)c3ccccc23)cc1,41%[activator],44%[activator]
COc1ccccc1NC(=O)CC1C(=O)Nc2nc3ccccc3n21 (stereo not given),-6%,-3%
O=C(Nc1cccc(Br)c1)C1C2CCC3C(CCC21)C3(Cl)Cl (stereo not given),?,?
COc1ccc2c(Sc3ccccc3)c(C(=O)NCC(C)c3ccccc3)[nH]c2c1 (stereo not given),76%[activator],0%
CCOc1ccc(S(=O)(=O)NCCC(=O)N(C)CC(=O)Nc2cccc(OC)c2)cc1,59%[activator],31%[activator]
CC12CC3CC(C)(C1)CC(c1ccc(O)cc1)(C3)C2,15%,22%

# The closing seven compounds of the section before are carried over, then new ones follow.
SMILES,StopGo RLuc,StopGo FLuc
CC(C)c1ccc2oc(-c3cccc(NC(=O)c4ccc5c(c4)OCCO5)c3)nc2c1,-12%,1%
CCNC(=O)COc1ccc(NC(=O)c2nn(CC)c(=O)c3ccccc23)cc1,41%[activator],44%[activator]
COc1ccccc1NC(=O)CC1C(=O)Nc2nc3ccccc3n21 (stereo not given),-6%,-3%
O=C(Nc1cccc(Br)c1)C1C2CCC3C(CCC21)C3(Cl)Cl (stereo not given),?,?
COc1ccc2c(Sc3ccccc3)c(C(=O)NCC(C)c3ccccc3)[nH]c2c1 (stereo not given),76%[activator],0%
CCOc1ccc(S(=O)(=O)NCCC(=O)N(C)CC(=O)Nc2cccc(OC)c2)cc1,59%[activator],31%[activator]
CC12CC3CC(C)(C1)CC(c1ccc(O)cc1)(C3)C2,15%,22%
COc1cc(-c2nc(-c3ccc(Br)cc3)no2)cc(OC)c1OC,-8%,0.4µM*
NC1=NC(c2cc(F)cc(F)c2)n2c(nc3ccccc32)N1 (stereo not given),-8%,-6%
CC(=O)c1cccc(NC(=O)CSc2nc(=O)n(Cc3cccnc3)c3c2CCC3)c1,-7%,-10%
CCOc1nc(NC(=O)NC(=O)c2ccccc2)nc(-c2ccccc2)n1,2%,-11%
CC1CCC2C3(C)COC(C)(C)OC3CC[C@]2(C)[C@@]12CCC1(CCOC1)O2 (stereo not given in full),3%,2%
O=C(Nc1ncn(Cc2cccc(Cl)c2)n1)c1ccn(COc2ccc(Cl)cc2)n1,-9%,-7%
COc1ccc(Cn2c(SCC(N)=O)nc3c(sc4ccccc43)c2=O)cc1,9%,-16%
Cc1cc(C(=O)Nc2ccc(C(=O)N(C)C)cc2)c2ccccc2n1,-14%,17%
COC(=O)C1CN(Cc2cn(Cc3ccccc3)nn2)CCS(=O)(=O)N1Cc1ccccc1 (stereo not given),0%,2%
CC(CCc1ccccc1)NC(=O)c1cccnc1Cl (stereo not given),2%,-12%
CCOC(CN1CCN(CC(C)C(=O)c2ccccc2)CC1)c1ccccc1 (stereo not given),-1%[23.8 µM],-12%[27 µM]
CCOC(=O)C1CCCN(S(=O)(=O)c2csc(C(N)=O)c2)C1 (stereo not given),-27%,0%
COc1cccc(C2CC(=O)Nc3nc(C)[nH]c(=O)c32)c1OC (stereo not given),-11%,-4%
NS(=O)(=O)c1ccccc1,5%,13%
CCOC(=O)c1ccc2[nH]c(CSc3nnc(-c4cccc(F)c4)n3C)cc(=O)c2c1,-3%,-4%
CC(=O)Oc1ccc2c(C)c(CC(=O)Nc3ncc(C)s3)c(=O)oc2c1,9%,17%
COc1ccc(Oc2nc3c(c(=O)n(C)c(=O)n3C)n2Cc2ccc(Cl)cc2Cl)cc1,-7%,-16%
COc1ccc(CNCCCSc2nnnn2-c2ccccc2)cc1,8%,25%
Cc1cccc(NC(=O)c2cc(S(=O)(=O)NCc3ccc4c(c3)OCO4)ccc2F)c1C,54%[activator],-11%
COc1cc(OC)c(C(=O)NCc2nc(-c3ccccc3)no2)cc1OC,?,?
Cc1cccc(-n2nnnc2C2(NCc3ccccc3)CCCC2)c1,55%[activator],-8%
CCN(CC)c1nc2c(c(=O)n(C)c(=O)n2C)n1Cc1ccc(F)cc1,-5%,-7%
O=C(CSc1nc(C2CC2)n(-c2ccccc2)n1)N1CCN(c2ccccc2F)CC1,4%,-9%
CC1CC(O)C(C)N(C)C1 (stereo not given),-1%,10%
CC(=O)Nc1nonc1-c1nnc(SCC(=O)Nc2cc(C)cc(C)c2)n1-c1ccccc1,-5%,-3%
O=C(Nc1nn[nH]n1)c1ccc(Br)c(S(=O)(=O)N2CCOCC2)c1,1%,-2%
COc1ccccc1N1CN(Cc2cccnc2)Cn2c1nc(C)c(Cc1ccccc1)c2=O,7%,12%
Cc1c(CC(=O)Nc2ccc(CCO)cc2)c(=O)oc2cc(O)ccc12,6%,14%
COc1ccc(N2CCN(C(=O)C3CCCN(S(=O)(=O)c4ccc5c(c4)CCCN5C(C)=O)C3)CC2)cc1 (stereo not given),?,?
O=C1CCCc2c(O)cccc21,-7%,22%[11.5 µM]
O=C(/C=C/c1ccc(C(F)(F)F)cc1)c1cccc(N2CCCC2=O)c1,13%,20%
Cc1nc2ncnn2c(N(C)Cc2ccccc2)c1Cc1ccccc1,-3%,4%
O=C(O)c1ccc(-c2ccc(/C=N/O)o2)cc1,-4%,0%
Cc1cc(F)ccc1NS(=O)(=O)c1ccc(-c2cnc(C3CC3)o2)cc1,22%,?
CCOC(=O)C(C)Oc1ccc2c(=O)c(-c3ccc4c(c3)OCCO4)c(C)oc2c1 (stereo not given),2%,12%
COc1cc(NC(=O)CCS(=O)(=O)c2ccc3c(c2)CC(=O)N3C)cc(OC)c1OC,5%,?
Cc1ccc(C(CNC(=O)c2ccc(C(C)(C)C)cc2)N2CCCC2)cc1 (stereo not given),-12%,0%
CCC(Nc1ccc(-c2nc(-c3ccccn3)no2)cc1[N+](=O)[O-])c1ccccc1 (stereo not given),0%,109%[activator]
COc1cc(C(=O)N2CCN(C(=O)OC(C)(C)C)CC2)ccc1OCc1ccccc1,-5%,-5%
O=c1c(S(=O)(=O)c2ccc(F)c(Cl)c2)c[nH]c2ccc(F)cc12,18%,-3%
COc1ccc(NC(=O)c2c(NCc3cccc(OC)c3)sc3c2CCCC3)cc1,?,14%
CC(=O)c1ccccc1NC(=O)CC(C)(C(=O)O)c1ccccc1 (stereo not given),-2%,-6%
Nc1ccnc2ccccc12,-2%,7%
CC1=C(c2ccc(C(C)C)cc2)S(=O)(=O)N=C1N1CCC(C(=O)NCc2ccco2)CC1,13%,0%
O=C1c2ccccc2C(c2c[nH]c3ccccc23)N1CCc1ccccc1 (stereo not given),197%[activator],-12%
Cc1ccc(CCNC(=O)C2CCCN(c3nnc(C)c4c(C)n(-c5ccccc5)nc34)C2)cc1 (stereo not given),12%,-6%
Cn1c(-n2cccc2)c(-c2c(-c3ccc(Cl)cc3)[nH]c3c2c(=O)[nH]c(=O)n3C)c(=O)[nH]c1=O,-1%,4%
O=C(Cc1ccc(F)cc1)Nc1nnc2n1CCS2,1%,8%
Cc1cccc(OCC(=O)Nc2nc(-c3ccc(S(=O)(=O)N4CCOCC4)cc3)cs2)c1,?,?
CN(CC(=O)NCc1ccco1)C(=O)c1ccc(S(=O)(=O)Nc2ccccc2)cc1,13%,-4%
COc1ccc(OCC(=O)Nc2nnc3n2CCS3)cc1,-6%,0%
Cc1c(CC(=O)N2CCCC2)c(=O)oc2cc(O)ccc12,-1%,1%
CCOc1ccc(-c2noc(-c3cc(-c4ccco4)n[nH]3)n2)cc1,-2%,0%
O=c1c2cc3c(cc2n(Cc2ccc(F)cc2)c(=O)n1Cc1nc(-c2ccccc2)no1)OCO3,-2%,-16%
CCCC(C)C(=O)Nc1ccc(-c2nc3ccccc3o2)cc1 (stereo not given),24%,205%[activator]
CC(Cl)C(=O)NC(=O)Nc1ccccc1 (stereo not given),-10%[1.06 µM],7%
COc1ccc(Cn2ccc3nc(C)c(C(=O)Nc4ccc(OC)c(OC)c4)cc3c2=O)cc1,-6%,-14%
NCC(c1ccc(Cl)cc1)N1CCCC1 (stereo not given),-6%,-5%
O=C(O)Cn1c(=O)n(Cc2ccc(Br)cc2F)c(=O)c2ccc(Cl)cc21,-12%,-17%[11.5 µM]
Cc1ccc(/C=C/C(=O)OC(C)C(=O)c2ccc(C)c(C)c2)o1 (stereo not given),-11%,4%

# Carrying on:
SMILES,StopGo RLuc,StopGo FLuc
COc1ccc(OC)c(C(=O)COC(=O)c2ccc(Cl)c(S(N)(=O)=O)c2)c1,47%[activator],11%
CCOc1ccc(-c2c(C)nn3c(C)c(C(=O)NCc4cccc(OC)c4)cnc23)cc1OCC,45%[activator],-11%
COc1cccc(C(=O)N2CCCCC2CCN2CCCCC2)c1 (stereo not given),-8%,-12%
CCC(NC(=O)C1CCN(C(=O)/C=C/c2ccccc2)CC1)C12CC3CC(CC(C3)C1)C2 (stereo not given),11%,0%
N#Cc1nc(-c2ccc(F)cc2)oc1NCc1ccc(Cl)cc1,19%,0%
CC(=O)Nc1ccc(NC(=O)c2ccc3nc[nH]c3c2)cc1,-5%,4%
COc1cc(/C=C/c2ccc3cccc([N+](=O)[O-])c3n2)cc(OC)c1O,-16%,25%
CN(C)c1ccc(NC(=O)Cn2c(SCc3ccc(F)cc3)nc3cccnc32)cc1,13%,0%
Cc1ccc(OCCSc2nc3cc(S(=O)(=O)N(C)C)ccc3o2)cc1,-1%,9%
Cc1ccc(C(=O)C(CC(=O)c2ccc(C)c(C)c2)S(=O)(=O)c2ccc(C)cc2)cc1 (stereo not given),-7%,0%
Cc1cccc(-c2nc3c4ccccc4nc(N4CCN(c5ccccc5F)CC4)n3n2)c1,-9%,57%[activator]
COc1cccc(CNS(=O)(=O)c2c(C)nc3scc(C)n3c2=O)c1,1%,-6%
CCCCc1noc(CSc2nnnn2-c2ccccc2OC)n1,35%[activator],66%[activator]
CCN(CCCNC(=O)c1nn(-c2ccc(OC)cc2)c(=O)c2c1c1ccccc1n2C)c1cccc(C)c1,11%,-4%
Cc1ccc(Nc2nc(NCC3CCCO3)nc3c2cnn3-c2ccccc2)cc1 (stereo not given),-3%,-2%
Cc1nc(-c2cccc(Cl)c2)sc1C(=O)N1CCN(Cc2ccc(C#N)cc2)CC1,?,?
O=[N+]([O-])c1cc(-c2nc(-c3ccccc3)no2)ccc1NCCc1ccccc1,-13%,34%[activator]
COCCCn1c(-c2ccc(S(=O)(=O)N3CCOCC3)cc2)csc1=Nc1ccccc1,-5%,0%
Cn1nc(C(=O)Nc2ncc(Cc3cccc(C(F)(F)F)c3)s2)c2ccccc2c1=O,-16%,-13%
Cc1cccc(NC(=O)c2ccc3snnc3c2)c1,4%,153%[activator]
NC(=O)c1nn(CC(=O)NCCc2ccccc2)c(=O)c2ccccc12,-3%,11%
Cc1cc(Nc2cc(Cl)ccc2C)n2nc(Cc3ccccc3)nc2n1,-14%,-22%
COc1ccccc1CN(C)C(=O)Cc1c(C)nc2ccccc2c1C,-18%,-13%
N#Cc1nc(COc2ccc(Cl)cc2Cl)oc1NCc1ccco1,-2%,-12%
CCC(=O)Nc1nc2ccc(CC(=O)N3CCN(c4ccc(F)cc4)CC3)cc2s1,119%[activator],26%
Cc1cc(NC(=O)C2CCC(CNS(=O)(=O)c3ccc(Br)s3)CC2)ccc1Br (stereo not given),-2%,-11%
CCc1ccc(NC(=S)N(Cc2ccccc2)Cc2cccs2)cc1,-13%,-31%
Cc1cc(C)n2nc(CNC(=O)c3ccc(Cl)cc3)nc2n1,-2%,-2%
Cc1ccc(NC(=O)CN2C(=O)C(c3ccc(F)cc3)=NC23CCCCC3)c(C)c1,0%,80%[activator]
CC(C)(CC(=O)O)CC(=O)Nc1ccc(Oc2ccccc2)cc1,26%,220%[activator]
Cc1cc(C)c(C(=O)/C=C/c2ccco2)cc1C,3%,20%
O=C(CSc1nc2ccccc2n1Cc1ccc(F)cc1)N1CCN(c2ccc(F)cc2)CC1,-11%,-6%
CC(C)(C)c1nc2cc(NC(=O)Cn3cnc4ccccc4c3=O)ccc2o1,?,-30%
CC(=O)CCc1ccc(OCC(O)CNC(C)(C)CO)cc1 (stereo not given),-5%,-3%
Cc1cccc2c1-c1sc(C(=O)N(C)c3cccc(Cl)c3)cc1CO2,6%,22%

# Rewritten with tabs: four of the compounds above
mol	StopGo RLuc	StopGo FLuc
CC(C)(C)c1nc2cc(NC(=O)Cn3cnc4ccccc4c3=O)ccc2o1	?	-30%
O=C(CSc1nc2ccccc2n1Cc1ccc(F)cc1)N1CCN(c2ccc(F)cc2)CC1	-11%	-6%
Cc1cc(C)c(C(=O)/C=C/c2ccco2)cc1C	3%	20%
CC(=O)CCc1ccc(OCC(O)CNC(C)(C)CO)cc1 (stereo not given)	-5%	-3%
